Source: PubChem BioAssay (National Center for Advancing Translational Sciences (NCATS))
D2 potentiator = positive allosteric modulators of human D2 dopamine receptor; P14416; DiscoveRx D2 beta-arrestin cells, luminescence, 90 min; 100% = 57 uM dopamine signal; 360,000 compounds, 0.23% hits; potentiation, % (no concentration beside the values); AID 624464; active = potentiation of 50% or more; inconclusive = 30% to 50%; inactive = 30% or less;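 note: compound concentration not given in the record; tested on top of an EC20 dose of dopamine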
Target sequence (P14416 whole entry, looked up): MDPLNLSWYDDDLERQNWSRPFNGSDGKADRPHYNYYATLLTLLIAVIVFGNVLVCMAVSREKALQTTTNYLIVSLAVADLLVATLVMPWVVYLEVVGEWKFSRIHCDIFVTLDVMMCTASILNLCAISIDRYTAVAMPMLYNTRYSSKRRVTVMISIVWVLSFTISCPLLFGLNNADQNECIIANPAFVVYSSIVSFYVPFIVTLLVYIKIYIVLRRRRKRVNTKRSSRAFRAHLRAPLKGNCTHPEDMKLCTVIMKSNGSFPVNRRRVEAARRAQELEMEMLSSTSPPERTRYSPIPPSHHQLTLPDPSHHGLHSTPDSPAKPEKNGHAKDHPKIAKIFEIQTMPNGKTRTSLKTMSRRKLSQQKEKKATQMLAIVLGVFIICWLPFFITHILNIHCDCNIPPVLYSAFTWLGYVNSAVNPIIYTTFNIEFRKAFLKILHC
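D2 cells co-treated with compound plus 50 nM dopamine (EC20) for 90 min at 37 deg C to detect potentiation. Beta-arrestin recruitment was read as enzyme-fragment luminescence after 1 h at ambient temperature. Full response was set by 57 uM dopamine.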
TRPML1 agonist = agonists of human TRPML1 channel; Q9GZU1; activation, % (concentration not given with the values); TRPML1-expressing cells, Ca2+ dye fluorescence, FDSS; host cell line not named in the record; reference of the full effect not given here; 410,000 compounds, 0.12% hits; in the data active = activation above about 50%; inconclusive = about 30% to 50%; inactive = below about 30%; note: 0% is about no effect; the text of the record puts the active cut at 80%
Target sequence (Q9GZU1 whole entry, looked up): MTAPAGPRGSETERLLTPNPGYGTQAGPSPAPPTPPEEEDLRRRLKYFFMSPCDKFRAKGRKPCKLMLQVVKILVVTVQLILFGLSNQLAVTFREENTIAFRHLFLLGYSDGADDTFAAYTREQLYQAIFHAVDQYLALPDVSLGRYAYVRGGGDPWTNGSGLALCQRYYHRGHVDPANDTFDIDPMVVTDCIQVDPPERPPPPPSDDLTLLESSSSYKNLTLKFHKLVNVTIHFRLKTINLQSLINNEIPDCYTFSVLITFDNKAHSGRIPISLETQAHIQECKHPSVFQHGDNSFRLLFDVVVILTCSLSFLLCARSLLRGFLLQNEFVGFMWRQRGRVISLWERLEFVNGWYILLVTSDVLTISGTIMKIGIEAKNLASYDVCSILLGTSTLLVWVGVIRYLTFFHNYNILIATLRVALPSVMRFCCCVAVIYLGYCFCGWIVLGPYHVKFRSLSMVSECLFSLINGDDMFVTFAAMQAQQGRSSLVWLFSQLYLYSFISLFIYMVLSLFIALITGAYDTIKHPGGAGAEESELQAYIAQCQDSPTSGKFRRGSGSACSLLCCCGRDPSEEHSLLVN
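Tet-induced TRPML1-DL cells, 1,500 per well, cultured overnight, were loaded with a no-wash Ca2+ dye for 45–90 min. Calcium fluorescence was recorded on the FDSS for 110 s after compound addition, before the EC80 agonist (4 uM 54-4) was added.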
Six1-Eya2 inh = Six1/Eya2 interaction inhibition | 360,000 compounds, 0.56% hits | AlphaScreen GST-Six1/His-Eya2 binding, biochemical; stronger effect = lower value; control for the full effect not named in the record | activity change, % (concentration not given with the values); in the data active = activity change below about -65%; inconclusive = about -30% to -65%; inactive = above about -30%; note: % is set by controls: 0 for no effect and ±100 for the full control effect
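AlphaScreen with GST-Six1 and His-Eya2 (5X mix: 250 nM and 500 nM), glutathione donor and nickel acceptor beads; buffer 50 mM Tris pH 8.0, 300 mM NaCl, 1 mM TCEP; 1 h at 37 C in the dark.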
TRPML1 inh = blocks the human TRPML1 channel. activity change, negative = inhibition, % (no concentration beside the values). Q9GZU1. 390,000 compounds, 0.02% hits. TRPML1-inducible cells, Ca2+ dye fluorescence, FDSS; stronger effect = lower value; inhibition of EC80 agonist-evoked calcium signal; in the data active means activity change below about -50%; inconclusive means about -30% to -50%; inactive means above about -30%;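 note: stimulus is agonist 54-4 at its EC80 concentration; % is set by controls: 0 for no effect and ±100 for the full control effect; compound concentration not given in the record; the text of the record puts the active cut at -80%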
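Tet-induced TRPML1-DL cells loaded with Ca8 no-wash calcium dye were read kinetically on FDSS. Compound addition was followed by EC80 agonist 54-4 (4 uM final); inhibition was read over 110 s.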
PINK1 expr mod = PINK1 expression modulation; Potency, µM (highest dose often 76.6 µM), for the others: top-dose activation (PINK1 increase), usual class: activators; 410,000 compounds, 0.2% hits; AID 624263; PINK1 immunofluorescence, high-content cytometry, 24 h; active = well fitted activation curve with a large enough effect; inconclusive = small, poorly fitted or top-dose-only effect; inactive = flat fitted curve, though single readings scatter; cell line not stated here;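 note: potency is the fitted concentration of half-maximal effect; % of control where 0% means no effect; nearly all actives have a fitted effect of over 65% in size; a mitochondrial uncoupler was the plate control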
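A stable cell line was treated with compounds at 5 concentrations for 24 hours, with CCCP as control. PINK1 levels and mitochondrial localization were measured by immunofluorescence with mitochondrial, cell and nuclear markers after fixation, read by laser-scanning cytometry.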
D2 agonist = human D2 receptor agonism in beta-arrestin assay | P14416 | DiscoveRx PathHunter D2 beta-arrestin, luminescence, 90 min; 100% = 57 uM dopamine signal | activation, % (no concentration beside the values) | 360,000 compounds, 0.084% hits | AID 624465; in the data active = activation above about 40%; inconclusive = about 15% to 40%; inactive = below about 15%; note: compound concentration not given in the record; the text of the record calls up to 30% inactive
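Agonist mode: compounds alone added to overnight-plated D2 PathHunter cells for 90 min at 37 C, with 57 uM final dopamine (EC100) defining full response. Beta-arrestin recruitment detected by chemiluminescent reagent, read after 1 h at ambient temperature.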
The depositor's hits bear a star; ? = inconclusive; nt = no result given; & = joins results of further samples; [ ] = another dose, or the depositor's remark.

Start of the listing, in advance, 10 compounds:
SMILES	D2 potentiator	TRPML1 agonist	Six1-Eya2 inh	TRPML1 inh	PINK1 expr mod	D2 agonist
COc1ccc(NS(=O)(=O)c2c(C)[nH]c(=O)[nH]c2=O)cc1OC	-8	0.5	2	26	0.2%	2.3
COc1cccc(C(=O)/C=C/Nc2ccc(S(=O)(=O)Nc3onc(C)c3C)cc2)c1	11	-0.5	-8	-18	0.7%	-4.3
C=C(C)c1cccc(C(C)(C)NC(=O)N2CCC(C(N)=O)CC2)c1	5	0.7	18	-9	-0.4%	-6.4
CC(C)(C)c1ccc(C(=O)N2CCC2(C)C(=O)Nc2cccc3ccccc23)cc1 (configuration not stated)	-6	-0.4	-6	nt	5.4%	-9.9
Cc1ccc(C(=O)NCC(=O)OCC(=O)Nc2cc(S(=O)(=O)N3CCOCC3)ccc2Cl)s1	-23	2.0	-16	-6	0.0%	-9.1
CCOc1ccccc1NC(=O)c1ccc2c(c1)C(=O)N(C(C)(C)C)C2=O	-5	1.5	1	-2	-0.7%	-0.4
Cc1cc(NC(=O)Nc2cccc(Cl)c2)n(C(C)(C)C)n1	-11	-0.4	-6	-12	1.1%	5.4
COC(=O)CCNC(=O)Cc1c(C)n(C(=O)c2ccc(Cl)cc2)c2ccc(OC)cc12	-2	-0.5	4	-2	1.4%	-0.8
CCO[C@H]1OC(C(=O)NCc2ccccc2)=C[C@@H](C2CC2)[C@@H]1CCCO	-9	-1.1	3	30	-0.6%	-2.9
COc1ccc(NC(=O)CSc2nc(-c3ccccc3)cc(-c3cc(OC)c(OC)c(OC)c3)c2C#N)c(OC)c1	nt	0.4	nt	20	0.5%	nt

Main list, previewed entries included:
SMILES	D2 potentiator	TRPML1 agonist	Six1-Eya2 inh	TRPML1 inh	PINK1 expr mod	D2 agonist
COc1ccc(NS(=O)(=O)c2c(C)[nH]c(=O)[nH]c2=O)cc1OC	-8	0.5	2	26	0.2%	2.3
COc1cccc(C(=O)/C=C/Nc2ccc(S(=O)(=O)Nc3onc(C)c3C)cc2)c1	11	-0.5	-8	-18	0.7%	-4.3
C=C(C)c1cccc(C(C)(C)NC(=O)N2CCC(C(N)=O)CC2)c1	5	0.7	18	-9	-0.4%	-6.4
CC(C)(C)c1ccc(C(=O)N2CCC2(C)C(=O)Nc2cccc3ccccc23)cc1 (configuration not stated)	-6	-0.4	-6	nt	5.4%	-9.9
Cc1ccc(C(=O)NCC(=O)OCC(=O)Nc2cc(S(=O)(=O)N3CCOCC3)ccc2Cl)s1	-23	2.0	-16	-6	0.0%	-9.1
CCOc1ccccc1NC(=O)c1ccc2c(c1)C(=O)N(C(C)(C)C)C2=O	-5	1.5	1	-2	-0.7%	-0.4
Cc1cc(NC(=O)Nc2cccc(Cl)c2)n(C(C)(C)C)n1	-11	-0.4	-6	-12	1.1%	5.4
COC(=O)CCNC(=O)Cc1c(C)n(C(=O)c2ccc(Cl)cc2)c2ccc(OC)cc12	-2	-0.5	4	-2	1.4%	-0.8
CCO[C@H]1OC(C(=O)NCc2ccccc2)=C[C@@H](C2CC2)[C@@H]1CCCO	-9	-1.1	3	30	-0.6%	-2.9
COc1ccc(NC(=O)CSc2nc(-c3ccccc3)cc(-c3cc(OC)c(OC)c(OC)c3)c2C#N)c(OC)c1	nt	0.4	nt	20	0.5%	nt
CCc1nc2c(OCc3c(C)noc3C)cccn2c1N(C)C(=O)c1ccccc1F	-10	-1.0	0	nt	1.8%	-3.8
CC(c1ccon1)N(C)C(=O)c1cccc(OC2CCN(S(C)(=O)=O)CC2)c1 (configuration not stated)	2	-0.7	0	-4	-0.1%	-0.7
COc1ccc2c(c1)C(=O)Cc1ccccc1O2	-23	3.5	1	1	5.3%	-9.7
O=C(NC(=S)Nc1ccccc1Br)C1CCCCC1	-15	0.9	6	-4	12%	-4.2
Cc1ccc(N2CCN(/N=C/C(Cl)=C/c3ccccc3)CC2)cc1	12	0.1	-7	-11	9.3%	2.7
NC(=O)c1ccc(NC(=O)C#Cc2ccccc2)cc1	3	-0.2	3	-10	-1.1%	3.1
CC(C)c1nc2ccc(C(=O)Nc3ccccc3F)cc2o1	nt	-0.1	nt	-13	3.5%	nt
O=C(O)CCc1ccc(-c2ccc(F)cc2)n1CC(=O)O	2	-0.8	-2	-13	0.1%	0.2
COc1ccc(C(=O)C2CCCN(Cc3cccn3-c3ccccn3)C2)c(OC)c1 (configuration not stated)	-13	0.3	-13	8	40µM*	-2.7
CC(=O)/C(=C/N(C)C)Sc1ccc(C)cc1	14	-0.9	2	-3	-1.6%	-3.2
Cc1cc(=S)n(-c2ccccc2)n1C	-6	-1.2	-1	19	-0.1%	-2.7
CCOC(=O)c1c(NC(=O)c2cc(OC)c(OC)c(OC)c2)sc2c1CCCC2	nt	-0.1	nt	-17	1.4%	nt
COc1ccc(N2C(=O)CS(=O)(=O)C23C(=O)N(Cc2ccc(C)cc2)c2ccccc23)cc1Cl (configuration not stated)	nt	0.7	nt	40	-3.2%	nt
O=C(Nc1ccc(-c2nnc3n2CCCCC3)cc1)c1ccco1	-5	0.0	0	-7	1.1%	-5.1
Cc1nc(-c2cccnc2)sc1C(=O)Nc1ccc(C(F)(F)F)cc1	2	0.0	-2	10	1.1%	-4.7
(list continues)
SMILES	D2 potentiator	TRPML1 agonist	Six1-Eya2 inh	TRPML1 inh	PINK1 expr mod	D2 agonist
COC(=O)CCCC(=O)NC1CC(C)(C)Cc2c1cnn2-c1ccc(C)cc1 (configuration not stated)	2	0.0	8	-5	2.7%	12
CCOC(=O)c1cccc(NC(=O)Cn2nc3c(cc2=O)CCCC3)c1	nt	-1.1	nt	1	-0.5%	nt
COc1cccc(N2CCN(CC(=O)Nc3nc(C)c(C(=O)N(C)C)s3)CC2)c1	0	2.3	5	7	0.3%	4.5
CCCSc1nnc(N2C(=O)CC(c3ccsc3)C3=C2CCCC3=O)s1 (configuration not stated)	2	0.4	2	0	0.1%	-6.0
O=S(=O)(NN=C1CCCCC1)c1ccccc1	-6	1.7	-2	-13	5.7%	7.4
CCCOC(=O)C1=C(C)NC2=C(C(=O)C(C(=O)OC)C(C)C2)C1c1ccc(N(C)C)cc1 (configuration not stated)	3	-0.2	-15	-1	-6.2%[38.3 µM]	1.3
Cc1cc2c(cc1S(=O)(=O)CCC(=O)NCc1ccccc1)OCC(=O)N2	-6	0.0&1.5	-1	2&-14	-0.9%&-0.1%	-2.6
COC(=O)c1ccc2nc(Nc3nc4ccc(F)cc4s3)sc2c1	-4	0.4	11	-4	?	2.5
O=C(COC(=O)c1ccccc1NC(=O)c1ccco1)Nc1ncc(Cl)cc1Cl	-22	0.9	-8	15	6.2%	1.9
COc1ccccc1NC(=O)c1cc(OC)c(OC)cc1[N+](=O)[O-]	-5	-0.2	6	36	0.2%	-1.3
CCOc1cc(/C=C(\C#N)c2[nH]nc(N)c2C#N)ccc1O	?	0.3	-67*	-22	1.5%	5.8
COc1ccc(/C(O)=C2\C(=O)C(=O)N(c3cc(C)on3)C2c2ccccc2OC)cc1 (configuration not stated)	-2	3.3	0	14	-0.6%	0.0
O=C(NC1CCCCC1)N(Cc1ccc(F)cc1)Cc1nc2ccccc2c(=O)[nH]1	-27	3.3	-3	-9	-1.3%	-5.3
Cc1nc(SCc2ccc(Cl)c(Cl)c2)n[nH]1	-1	0.4	2	-5	3.3%	1.0
CCCCOc1cccc(C(=O)N(Cc2ccco2)C2CCS(=O)(=O)C2)c1 (configuration not stated)	18	3.7	-1	7	2.2%[38.3 µM]	-0.7
CS(=O)(=O)NN1C(=O)c2ccccc2NC1c1c[nH]c2ccccc12 (configuration not stated)	0	2.0	-4	-3	0.5%	-2.9
O=C(CCN=C1NS(=O)(=O)c2ccccc21)NCc1ccccc1F	-25	-0.4	0	-18	-0.1%	-2.1
CC(=O)N1CCC(=NNC(=O)c2cccs2)CC1	-3	-0.5	2	-11	-1.4%	-3.4
O=[N+]([O-])c1ccc2[nH]c(=S)[nH]c2c1	-13	0.2	-3	-7	-0.7%	-4.7
CC(C(=O)Nc1ccc(Br)cc1)N(C)CC(=O)NCc1ccco1 (configuration not stated)	-3	5.0	-2	33	-0.3%	7.5
COC(=O)c1cccc(NC(=O)CSc2nnc(C)o2)c1	-1	0.4	-14	-5	-2.5%	-1.3
COc1ccc(/C=N/NC(=O)CNC(=O)c2ccc(S(=O)(=O)N3CCOCC3)cc2)c(OC)c1	-10	-0.1	-9	5	0.7%	-3.0
Brc1ccc(C2Nc3cccc4cccc(c34)N2)cc1	7	-0.4	-5	7	3.1%	?
Cc1cc(C)nc(SCc2nnc(SCC(=O)Nc3nccs3)n2C)n1	10	-0.4	12	2	-2.3%	-0.9
COc1ccccc1CNC(=O)c1ccc2c(c1)N(Cc1cc(C)ccc1C)C(=O)c1ccccc1S2	nt	1.1	nt	8	0.8%	nt
Next structures:
SMILES	D2 potentiator	TRPML1 agonist	Six1-Eya2 inh	TRPML1 inh	PINK1 expr mod	D2 agonist
CCCCCCCc1c(C#N)c(N)[nH]c(=S)c1C#N	-11	0.1	-22	12	-0.8%	1.8
O=c1c(C(c2ccc(Br)cc2)c2c(O)nc3n(c2=O)CCCS3)c(O)nc2n1CCCS2	-5	0.1	-21	6	0.2%	-6.9
COC(=O)c1c(SCc2cccc3ccccc23)nc(=O)[nH]c1C	6	2.6	-2	17	0.5%	0.4
C=CCN1CCN(C(c2cccc(OC)c2OC)c2nnnn2CCC(C)C)CC1 (configuration not stated)	-11	0.0	0	19	0.1%	-1.9
Cc1ccc(N2CC(C(=O)Nc3nnc(SCc4ccccn4)s3)CC2=O)cc1 (configuration not stated)	-10	-0.1	-8	16	-0.7%	-0.4
COc1ccccc1NC(=O)c1csc2c1CCCC2	-8	-0.5	15	2	2.9%[38.3 µM]	-4.1
Cc1ccccc1COC(=O)c1nn(-c2ccccc2)nc1N	-2	1.1&4.7	20	-15&9	3.0%&6.4%	-6.2
O=C(c1ccco1)N(CCC(c1ccccc1)c1ccco1)Cc1ccccc1 (configuration not stated)	-7	1.5	-26	54	6.9%	-3.0
c1ccc(CCNc2nc(-c3ccncc3)cs2)cc1	-11	-0.4	2	-16	-1.1%	-2.6
CC(C)n1c(NCc2ccc(N(C)C)cc2)nc2ccccc21	-17	-0.8	-15	20	0.8%	-1.3
O=C(Cn1c(=O)sc2ccccc21)Nc1nc2c(s1)CCCC2	-9	1.6	-4	-2	2.2%	-1.4
O=C1CCCc2nn(-c3ccccc3)c(-c3ccncc3)c21	-8	0.5	6	5	-1.6%	-4.0
CCc1ccc2oc(C(=O)Nc3cc(Cl)ccc3OC)cc(=O)c2c1	nt	-0.1	nt	-9	0.6%	nt
CC(=O)/C=C/c1ccccc1Oc1c(F)c(F)nc(F)c1F	-9	2.6	-5	42	?	-5.6
CC(C)CCN(C(=O)C1CCCC1)c1c(N)n(Cc2ccccc2)c(=O)[nH]c1=O	-2	0.2	3	-7	-1.4%	3.8
COC(/C=C/Nc1ccc(C)cc1)=C(C#N)C#N	6	1.1	3	5	nt	-2.6
CCOc1ccc(S(=O)(=O)N2CCN(C(=O)c3cccn3C)CC2)cc1	-13	-0.5	1	-3	0.5%	8.1
